Source: PubChem
Yeast UUG start: yeast start codon fidelity modulation | S. cerevisiae UUG-firefly luciferase reporter, luminescence/redox ratio | activity score, % at 18.7 µM | 350,000 tested, 0.13% active | AID 602363;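 active means replicate mean at a twofold rise or more, about +100% in these data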;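 further: firefly luciferase made from a UUG start codon reports start codon fidelity; reporter light over untreated wells divided by growth signal over untreated wells; some hits fall short of that in this replicate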
HIV Env fusion: inhibitors of HIV Env-mediated cell fusion | inhibition, % at 12.3 µM | 360,000 tested, 1.1% active | HeLa-JRFL Env/CEM21 cell fusion, luciferase;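 active means mean replicate inhibition score of at least 50 and every replicate individually at or above 50; inconclusive means only one of the two criteria met; inactive means mean below 50 and not all replicates reaching 50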;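 further: 0% = plate neutral controls and 100% = maraviroc near 300 nM; one replicate is shown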
Starred values were filed as active, the others as inactive; u = inconclusive; [ ] = another dose, or the depositor's remark.

Under each structure: HIV Env fusion, Yeast UUG start
C[C@@H]1CN([C@@H](C)CO)C(=O)Cc2cc(NC(=O)Nc3ccc4c(c3)OCO4)ccc2O[C@@H]1CN(C)C(=O)Nc1ccc(F)cc1
→ 17.5[16.7 µM], 8.5
O=C(C[C@@H]1C[C@@H]2c3cc(NC(=O)C4CCC4)ccc3O[C@@H]2[C@@H](CO)O1)NCC(F)(F)F
→ 89.7*[16.7 µM], 1.8
C[C@H]1CN([C@@H](C)CO)C(=O)c2cc(NS(=O)(=O)c3ccccc3)ccc2O[C@H]1CN(C)Cc1ccc(Oc2ccccc2)cc1
→ -39.2[16.7 µM], 2.4
Cc1noc(C)c1S(=O)(=O)N(C)C[C@@H]1OCCCC[C@H](C)Oc2ccc(NC(=O)Cc3ccccc3)cc2C(=O)N([C@H](C)CO)C[C@H]1C
→ 8.4[16.7 µM], 5.6
COc1cccc(-c2cnc3c(c2)C(=O)N([C@H](C)CO)C[C@@H](C)[C@H](CN(C)Cc2cccnc2)O3)c1
→ 9.5[16.7 µM], -3.3
C[C@@H]1CN([C@@H](C)CO)S(=O)(=O)c2ccc(C#Cc3ccccc3)cc2O[C@@H]1CN(C)S(C)(=O)=O
→ -144.8[16.7 µM], -10.4
C[C@H](CO)N1C[C@H](C)[C@H](CN(C)S(=O)(=O)c2cccs2)Oc2ccc(NC(=O)Nc3ccc4c(c3)OCO4)cc2C1=O
→ 46.6[16.7 µM], -10.2
C[C@@H]1CCCCO[C@@H](CN(C)Cc2ccc3c(c2)OCO3)[C@H](C)CN([C@H](C)CO)C(=O)c2cc(NS(=O)(=O)c3cccs3)ccc2O1
→ 3.8[16.7 µM], 52.4
Cc1noc(C)c1NC(=O)Nc1ccc2c(c1)C(=O)N([C@H](C)CO)C[C@H](C)[C@@H](CN(C)C(=O)Nc1cccc3ccccc13)OCCCC[C@@H](C)O2
→ 0.0[16.7 µM], 7.5
CNC[C@H]1Oc2c(NC(=O)Nc3ccc(OC)cc3)cccc2C(=O)N([C@@H](C)CO)C[C@@H]1C
→ 8.7[16.7 µM], -8.6
C[C@H]1CN([C@@H](C)CO)C(=O)c2cc(-c3ccc(C(=O)N(C)C)cc3)cnc2O[C@@H]1CN(C)C(=O)CN(C)C
→ -27.6[16.7 µM], -6.5
Cc1noc(C)c1S(=O)(=O)N(C)C[C@@H]1OCCCC[C@@H](C)Oc2ccc(NC(=O)CCC(F)(F)F)cc2C(=O)N([C@H](C)CO)C[C@@H]1C
→ u, 6.0
CNC[C@H]1OCCCC[C@@H](C)Oc2ccc(NC(=O)c3ccncc3)cc2C(=O)N([C@@H](C)CO)C[C@@H]1C
→ 10.9[16.7 µM], 30.8
CC(C)CC#Cc1ccc2c(c1)O[C@H](CN(C)CC1CCOCC1)[C@H](C)CN([C@@H](C)CO)S2(=O)=O
→ 11.6[16.7 µM], -7.2
Cc1noc(C)c1S(=O)(=O)N(C)C[C@H]1Oc2ccc(NC(=O)Cc3cn(C)c4ccccc34)cc2CC(=O)N([C@H](C)CO)C[C@H]1C
→ -7.9[16.7 µM], -12.7
N#C[C@@H]1[C@H](c2ccc(C#Cc3ccc(F)cc3)cc2)[C@@H](CO)N1C(=O)Nc1ccc(F)cc1
→ 22.9[16.7 µM], 2.1
Cc1ccccc1-c1cnc2c(c1)C(=O)N([C@@H](C)CO)C[C@H](C)[C@@H](CN(C)C(=O)c1ccccc1)O2
→ -10.6[16.7 µM], -1.7
C[C@H](CO)N1C[C@H](C)[C@H](CN(C)Cc2cccnc2)Oc2cc(C3=CCCCC3)ccc2S1(=O)=O
→ 8.0[16.7 µM], -4.7
COc1ccc(NC(=O)Nc2ccc3c(c2)C(=O)N([C@H](C)CO)C[C@H](C)[C@@H](CN(C)S(=O)(=O)c2cccs2)OCCCC[C@H](C)O3)cc1
→ -32.1[16.7 µM], -9.5
C[C@@H]1CN([C@H](C)CO)C(=O)c2cc(NS(=O)(=O)c3ccc(F)cc3)ccc2O[C@@H](C)CCCCO[C@@H]1CN(C)C(=O)C1CCCCC1
→ -32.6[16.7 µM], 2.0

Remaining list, next part.
Under each structure: HIV Env fusion, Yeast UUG start
CC(C)CNC(=O)C1(C)CCCN1C(=O)C(C)(C)Oc1ccc(Cl)cc1 (stereo not given)
→ 26.9, -27.4
C[C@H](CO)N1C[C@H](C)[C@H](CN(C)Cc2ccccc2)Oc2cc(Br)ccc2S1(=O)=O
→ 50.1[16.7 µM], -7.5
Cc1noc(C)c1NC(=O)N(C)C[C@H]1Oc2c(NS(=O)(=O)c3c(C)noc3C)cccc2C(=O)N([C@H](C)CO)C[C@H]1C
→ 13.2[16.7 µM], -11.0
Cc1noc(C)c1NC(=O)N[C@@H]1CC[C@@H](CC(=O)Nc2ccccc2)O[C@H]1CO
→ -24.9[16.7 µM], -15.1
CCC(=O)N(C)C[C@@H]1Oc2cc(-c3ccccc3)ccc2S(=O)(=O)N([C@H](C)CO)C[C@H]1C
→ 7.1[16.7 µM], 21.1
O=C(C[C@H]1C=C[C@H](NC(=O)C2CCOCC2)[C@@H](CO)O1)NCc1ccncc1
→ -8.9[16.7 µM], -14.6
O=C(Nc1ccc(C(F)(F)F)cc1)N[C@@H]1CC[C@@H](CCNC(=O)c2ccccc2F)O[C@H]1CO
→ -1.1[16.7 µM], 5.5
COc1ccccc1CNC(=O)C[C@H]1C[C@@H]2c3cc(NC(=O)NC4CCCC4)ccc3O[C@@H]2[C@@H](CO)O1
→ -8.1[16.7 µM], -7.3
CC(C)NC(=O)N(C)C[C@@H]1Oc2cc(-c3ccccc3F)ccc2S(=O)(=O)N([C@@H](C)CO)C[C@H]1C
→ -4.4[16.7 µM], 9.7
C[C@@H]1CN([C@@H](C)CO)C(=O)CCCn2cc(nn2)CO[C@H]1CN(C)C(=O)c1ccncc1
→ 5.9[16.7 µM], -10.8
COc1ccc(NC(=O)Nc2ccc3c(c2)CC(=O)N([C@H](C)CO)C[C@@H](C)[C@H](CN(C)Cc2ccc(C(=O)O)cc2)O3)cc1
→ -14.2[16.7 µM], 2.6
O=C(NCC[C@H]1CC[C@@H](NS(=O)(=O)c2ccc(Oc3ccccc3)cc2)[C@@H](CO)O1)C1CC1
→ 12.8[16.7 µM], 13.0
O=S(=O)(N[C@H]1CC[C@H](CCn2cc(-c3ccc(F)cc3)nn2)O[C@@H]1CO)c1ccccc1F
→ 10.0[16.7 µM], 0.1
C[C@H](CO)N1C[C@H](C)[C@H](CN(C)C(=O)NC2CCCCC2)OCCCC[C@H](C)Oc2ccc(NS(=O)(=O)c3ccc(F)cc3)cc2C1=O
→ -147.7[16.7 µM], 0.7
CN1C[C@@H](O)COC[C@H]2O[C@H](CC(=O)NC3CCC3)CC[C@@H]21
→ -14.6[16.7 µM], -9.2
O=C(C[C@H]1C[C@H]2c3cc(NC(=O)Cc4ccncc4)ccc3O[C@H]2[C@H](CO)O1)NCc1cc(F)ccc1F
→ 17.7[16.7 µM], -9.6
C[C@H]1CN([C@@H](C)CO)C(=O)c2cc(NC(=O)C3CC3)ccc2O[C@@H]1CN(C)S(=O)(=O)c1cccs1
→ -1.4[16.7 µM], 14.7
COc1ccc(CN(C)C[C@H]2Oc3ccc(NC(=O)Nc4ccc(OC)cc4)cc3C(=O)N([C@@H](C)CO)C[C@@H]2C)cc1
→ -33.4[16.7 µM], 3.0
COc1ccc(C#Cc2cnc3c(c2)C(=O)N([C@H](C)CO)C[C@@H](C)[C@H](CN(C)CC2CCCC2)O3)cc1
→ 20.1[16.7 µM], 9.9
O=C(C[C@@H]1C=C[C@@H](NC(=O)Nc2ccc3c(c2)OCO3)[C@@H](CO)O1)NCc1ccc(F)cc1
→ -4.0[16.7 µM], -13.0

Next section (5 carried over from the part before).
Under each structure: HIV Env fusion, Yeast UUG start
O=C(C[C@H]1C[C@H]2c3cc(NC(=O)Cc4ccncc4)ccc3O[C@H]2[C@H](CO)O1)NCc1cc(F)ccc1F
→ 17.7[16.7 µM], -9.6
C[C@H]1CN([C@@H](C)CO)C(=O)c2cc(NC(=O)C3CC3)ccc2O[C@@H]1CN(C)S(=O)(=O)c1cccs1
→ -1.4[16.7 µM], 14.7
COc1ccc(CN(C)C[C@H]2Oc3ccc(NC(=O)Nc4ccc(OC)cc4)cc3C(=O)N([C@@H](C)CO)C[C@@H]2C)cc1
→ -33.4[16.7 µM], 3.0
COc1ccc(C#Cc2cnc3c(c2)C(=O)N([C@H](C)CO)C[C@@H](C)[C@H](CN(C)CC2CCCC2)O3)cc1
→ 20.1[16.7 µM], 9.9
O=C(C[C@@H]1C=C[C@@H](NC(=O)Nc2ccc3c(c2)OCO3)[C@@H](CO)O1)NCc1ccc(F)cc1
→ -4.0[16.7 µM], -13.0
C[C@@H]1CCCCO[C@H](CN(C)S(=O)(=O)c2ccc(Cl)cc2)[C@H](C)CN([C@@H](C)CO)C(=O)c2cc(NC(=O)c3ccncc3)ccc2O1
→ -15.3[16.7 µM], 7.9
C[C@H](CO)N1C[C@H](C)[C@@H](CN(C)S(=O)(=O)c2cccs2)Oc2ccc(NC(=O)Cc3ccccc3)cc2CC1=O
→ 45.6[16.7 µM], 18.0
C[C@H](CO)N1C[C@H](C)[C@@H](CN(C)S(=O)(=O)c2cn(C)cn2)OCCCC[C@H](C)Oc2ccc(NC(=O)Nc3ccccc3)cc2C1=O
→ -11.0[16.7 µM], 1.5
C[C@@H]1CN([C@H](C)CO)C(=O)c2cc(NC(=O)Cc3ccccc3)ccc2O[C@@H]1CN(C)S(=O)(=O)c1ccc(Cl)cc1
→ 8.7[16.7 µM], 4.8
CC(=O)N[C@H]1C=C[C@H](CC(=O)NCc2ccc(Cl)cc2)O[C@@H]1CO
→ 0.9[16.7 µM], -10.5
C[C@@H]1CCCCO[C@@H](CN(C)Cc2ccc(C(=O)O)cc2)[C@H](C)CN([C@H](C)CO)C(=O)c2cc(NC(=O)Nc3ccc(F)cc3)ccc2O1
→ 15.7[16.7 µM], 10.7
COc1ccc(S(=O)(=O)N(C)C[C@@H]2OCCCC[C@@H](C)Oc3ccc(NC(=O)CCCN(C)C)cc3C(=O)N([C@@H](C)CO)C[C@@H]2C)cc1
→ 8.7[16.7 µM], 15.8
Cc1ccc(S(=O)(=O)N(C)C[C@H]2Oc3cc(C#Cc4ccccc4)ccc3S(=O)(=O)N([C@@H](C)CO)C[C@H]2C)cc1
→ -72.9[16.7 µM], -12.0
COCc1cn(CC[C@H]2CC[C@@H](NC(=O)Nc3ccc(Cl)cc3)[C@H](CO)O2)nn1
→ -8.9[16.7 µM], -4.1
CNC[C@@H]1Oc2c(NC(=O)Nc3ccc4c(c3)OCO4)cccc2C(=O)N([C@@H](C)CO)C[C@H]1C
→ 16.0[16.7 µM], -6.4
C/C=C/c1ccc2c(c1)O[C@@H](CN(C)C(=O)c1ccncc1)[C@@H](C)CN([C@@H](C)CO)S2(=O)=O
→ 29.5[16.7 µM], 0.9
COc1ccc(C#Cc2ccc3c(c2)[C@]2(C(=O)N3)[C@H](c3ccccc3OCCO)N3[C@H](c4ccccc4)[C@H](c4ccccc4)OC(=O)[C@H]3[C@@H]2C(=O)N2CCCCCCC2)cc1
→ 9.7[16.7 µM], 9.1
O=C(C[C@@H]1C[C@H]2c3cc(NC(=O)NC4CCCCC4)ccc3O[C@H]2[C@@H](CO)O1)NCc1ccccc1
→ 10.6[16.7 µM], 0.0
C[C@H](CO)N1C[C@H](C)[C@@H](CN(C)Cc2ccc(-c3ccccc3)cc2)Oc2ccc(NC(=O)CCC(F)(F)F)cc2CC1=O
→ -0.6[16.7 µM], 2.4
C[C@@H]1CN([C@H](C)CO)C(=O)c2cc(/C=C/c3ccccc3)cnc2O[C@@H]1CN(C)Cc1cccnc1
→ -18.4[16.7 µM], -5.4
C/C=C/c1ccc([C@H]2[C@@H](C#N)N(C(=O)Cc3ccccn3)[C@H]2CO)cc1
→ 1.5[16.7 µM], -23.6
COc1ccc(NC(=O)N(C)C[C@H]2OCCCC[C@@H](C)Oc3ccc(NS(=O)(=O)c4ccc(C)cc4)cc3C(=O)N([C@H](C)CO)C[C@@H]2C)cc1
→ -4.0[16.7 µM], -10.1
CCC(=O)N1C[C@H](C)[C@H](OC)CN(C)C(=O)c2cc(NC(=O)C3CC3)ccc2OC[C@H]1C
→ 19.1[16.7 µM], 6.7
COc1ccccc1-c1cnc2c(c1)C(=O)N([C@@H](C)CO)C[C@@H](C)[C@@H](CN(C)Cc1ccc(C(=O)O)cc1)O2
→ -1.7[16.7 µM], 14.5
COc1cccc(-c2ccc3c(c2)O[C@@H](CN(C)Cc2ccncc2)[C@H](C)CN([C@@H](C)CO)S3(=O)=O)c1
→ 7.5[16.7 µM], 0.1

Next part:
Under each structure: HIV Env fusion, Yeast UUG start
C[C@@H]1CCCCO[C@H](CN(C)Cc2ccc(Cl)c(Cl)c2)[C@@H](C)CN([C@H](C)CO)C(=O)c2cc(NC(=O)Nc3ccc4c(c3)OCO4)ccc2O1
→ 17.8[16.7 µM], -14.7
C[C@H]1CCCCO[C@H](CN(C)C(=O)Nc2ccc(C(F)(F)F)cc2)[C@@H](C)CN([C@@H](C)CO)C(=O)c2cc(NS(=O)(=O)c3ccc(F)cc3)ccc2O1
→ 77.5*[16.7 µM], -19.6
C[C@H](CO)N1C[C@H](C)[C@@H](CN(C)C(=O)NC2CCCCC2)Oc2cc(C#Cc3ccc(F)cc3)ccc2S1(=O)=O
→ -0.5[16.7 µM], 5.5
C[C@@H]1CN([C@H](C)CO)C(=O)Cc2cc(NC(=O)C3CC3)ccc2O[C@@H]1CN(C)C(=O)NC1CCCCC1
→ 9.7[16.7 µM], 1.7
COc1ccc(S(=O)(=O)N(C)C[C@H]2Oc3ccc(NC(=O)CCN4CCOCC4)cc3CC(=O)N([C@H](C)CO)C[C@@H]2C)cc1
→ 4.4[16.7 µM], 8.7

An excerpt; count on the stated rates, not on these rows.
